# Calb FLC – C. albicans growth modulation with fluconazole; C. albicans CaCi-2 (fluconazole-resistant clinical isolate) + fluconazole, Alamar Blue growth, 48 h; growth inhibition, % (no concentration beside the values); actives 0.57% (n = 300,000);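 active = most replicates above 75%; inconclusive = exactly half above 75%; inactive = most below 75%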;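 note: all wells also contain fluconazole at 8 µg/ml as a sub-toxic cotreatment; 0% = median of DMSO wells and 100% = median of geldanamycin control wells; wells of about 8 µL received 7.5 nL stock; the first replicate is given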
# T cruzi inh – T. cruzi replication inhibition. inhibition, % (no concentration beside the values). T. cruzi beta-gal in NIH3T3, luminescence, 90 h. actives 1.4% (n = 300,000). AID 1885;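 active = mean inhibition across valid replicates above about 55%, limit read from the data; inconclusive = mean below that limit but half or more replicates reach it; inactive = mean below it, under half of replicates reach it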;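 note: signal also drops with host cell toxicity which is not excluded here; 0% = plate median of DMSO wells and 100% = zero luminescence signal; higher percent means less beta-gal luminescence so fewer parasites; stock transfer was 50 nL into about 50 µL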
# RanGTP-Impb inh – disruptors of Ran-importin-beta complex formation – biochemical, FRET, CFP-Ran, YFP-importin-beta, homogeneous, primary screen. AID 2216. cell-free CFP-Ran/YFP-importin-beta FRET ratio. inhibition, % (concentration not given with the values). actives 1.1% (n = 300,000);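 active = most replicates above 15%; inconclusive = exactly half above 15%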;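 note: 0% = DMSO wells and 100% = Ran loaded with GDP instead of GTP; wells of about 40 µL received 100 nL stock; the first replicate is given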
# MLL AF4-AF9 inh – MLL-AF4/AF9 protein interaction inhibition | inhibition, % at 10 µM | actives 0.47% (n = 350,000) | P42568 | AlphaScreen, biotin-AF4 peptide binding to FLAG-AF9 | AID 651704;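 active = every replicate reaching a set inhibition limit, whatever the replicate mean, cut at about 25% in these data; inconclusive = mean inhibition reaches that limit but some replicates miss it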;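 note: 0% = plate neutral control median and 100% = total signal loss; the record names both 10 and 1 µM as test concentration; the first replicate is given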
# Vif A3G – inhibitors of Vif binding to APOBEC3G peptide, primary screen, biochemical, TR-FRET, GST-Vif 1-94, biotin-A3G peptide, dose response retest (AID 1117319). actives 0.57% (n = 260,000). TR-FRET GST-Vif / biotin-A3G peptide binding; higher % means a stronger effect; test concentration not given here; strong numbers were not always called active. inhibition, %, or IC50 in µM where a hit was titrated;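 active = above the screen mean plus three standard deviations and confirmed in dose response; inconclusive = results disagree or hit not tested in dose response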;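 note: Vif residues 1-94 fused to GST binding biotinylated APOBEC3G peptide 110-148; 0% = full assay without inhibitor and 100% = GST in place of GST-Vif; retest series ran down from 100 µM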
# Beta cell apopt – beta cell apoptosis inhibition; INS-1E cytokine-induced death, ATP luminescence, 48 h; percent of positive-control rescue, neutral wells zero; protection from apoptosis, % (no concentration beside the values); actives 0.8% (n = 300,000);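 active = all replicates at 75% or more, or half of them and the mean; inconclusive = half reach 75% but not the mean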;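 note: 0% = cytokine-treated negative control wells and 100% = positive control rescue; higher means more ATP so stronger rescue from cytokine killing; wells of about 40 µL received 100 nL stock; the first replicate is given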
# Bfl-1 A1 inh – inhibitors of the anti-apoptotic protein A1, read as caspase activation. MEF A1-2A-BIM cells, Caspase-Glo 3/7 luminescence, 3 h; percent of clofoctol response, vehicle zero. caspase activation, % (concentration not given with the values). actives 0.066% (n = 330,000). AID 2462;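 active = over half of replicate activation scores above 10%, or exactly half above 10 with the replicate mean above 10; inconclusive = replicate mean below 10 yet half the replicates above 10; inactive = over half of replicates below 10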;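 note: wells of about 30 µL received 50 nL stock; many hits fall short of the cut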
# LANA-H2A inh – blocks KSHV LANA binding to histone H2A/H2B; actives 0.6% (n = 320,000); inhibition, % (concentration not given with the values); Q9QR71; cell-free LANA-H2A/H2B peptide, fluorescence polarization; in the data active = inhibition mostly above about 10%, no sharp cut-off; inactive = mostly below about 6.7%;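 note: stock transfer was 7.5 nL into about 10 µL; 0% = median of vehicle wells and 100% = median of positive control wells; one replicate is shown; the record names a cut of 25% in any replicate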
# Target sequence (Q9QR71 whole entry, looked up): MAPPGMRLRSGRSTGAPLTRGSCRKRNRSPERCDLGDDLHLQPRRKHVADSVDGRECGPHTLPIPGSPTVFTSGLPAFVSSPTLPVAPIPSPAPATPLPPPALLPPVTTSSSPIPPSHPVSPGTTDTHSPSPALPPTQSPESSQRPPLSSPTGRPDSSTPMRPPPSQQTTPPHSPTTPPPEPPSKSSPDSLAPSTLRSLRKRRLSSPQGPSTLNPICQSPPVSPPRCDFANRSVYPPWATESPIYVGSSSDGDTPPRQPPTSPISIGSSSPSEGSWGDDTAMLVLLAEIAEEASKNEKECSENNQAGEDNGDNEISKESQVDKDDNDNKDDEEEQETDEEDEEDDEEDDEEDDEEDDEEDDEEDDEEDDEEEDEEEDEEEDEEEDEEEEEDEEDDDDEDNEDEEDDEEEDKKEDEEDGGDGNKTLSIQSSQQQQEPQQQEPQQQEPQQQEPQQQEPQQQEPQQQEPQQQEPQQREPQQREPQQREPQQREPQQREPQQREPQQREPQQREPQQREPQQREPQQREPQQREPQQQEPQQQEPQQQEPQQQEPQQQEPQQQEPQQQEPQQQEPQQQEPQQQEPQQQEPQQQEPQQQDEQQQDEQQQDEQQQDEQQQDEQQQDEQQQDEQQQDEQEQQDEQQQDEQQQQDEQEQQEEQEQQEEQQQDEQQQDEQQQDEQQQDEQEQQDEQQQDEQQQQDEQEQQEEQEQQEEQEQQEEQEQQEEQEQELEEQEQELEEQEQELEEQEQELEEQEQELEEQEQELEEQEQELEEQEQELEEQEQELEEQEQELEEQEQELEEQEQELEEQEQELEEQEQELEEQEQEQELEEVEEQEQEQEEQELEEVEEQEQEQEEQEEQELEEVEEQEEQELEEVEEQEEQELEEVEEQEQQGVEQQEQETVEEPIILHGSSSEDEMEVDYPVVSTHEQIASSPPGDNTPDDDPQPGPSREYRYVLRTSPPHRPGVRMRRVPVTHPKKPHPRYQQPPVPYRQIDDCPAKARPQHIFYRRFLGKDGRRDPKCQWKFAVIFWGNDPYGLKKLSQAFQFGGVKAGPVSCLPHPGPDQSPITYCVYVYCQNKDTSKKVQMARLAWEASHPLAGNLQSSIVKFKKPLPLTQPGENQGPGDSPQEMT
# Numbers without * were called inactive; ? = inconclusive; / = not tested or not shown; & = joins results of further samples; ! = not confirmed by another sample.
SMILES,Calb FLC,T cruzi inh,RanGTP-Impb inh,MLL AF4-AF9 inh,Vif A3G,Beta cell apopt,Bfl-1 A1 inh,LANA-H2A inh
COc1cc(/C=C/c2ccc3cccc([N+](=O)[O-])c3n2)ccc1OCC#N,-3,9,-1.1,3.3,/,6,1.0,-2.6
O=c1cc2ncc(-n3cc([N+](=O)[O-])cn3)cn2[nH]1,17,-9,3.0,-0.7,6%,-2,1.0,5.7
CN(C)C(=O)CN1CCN(Cc2nc(CC3CC3)no2)CC1,2,-9,-1.5,0.5,-2%,-4,-0.4,3.5
CN(C)S(=O)(=O)c1cc(C(=O)NCC2CCCO2)c(Cl)cc1Cl (stereo not given),10,-4,-8.0,/,0%,-3,-0.6,4.7
CN(CC(=O)N1CCCC1)S(=O)(=O)c1cc(Cl)ccc1Cl,19,-17,1.1,/,-4%,-7,1.0,-3.4
Cc1cccc(N(CC(=O)NC2CCCC2)C(=O)CCC(=O)Nc2nc(C)cs2)c1,15,18,2.5,-5.7,/,0,-0.6,-3.1
CCOc1ccc(C2=CC(=O)C[C@H](c3ccc(OC)cc3)C2)cc1,/,/,/,-0.7,/,-8,?,2.3
CC(=O)c1cc2c(cc1NC(=O)CSc1ccc(S(=O)(=O)N(C)C)cn1)OCO2,/,/,/,-1.7,/,-2,-0.5,1.8
O=C(O)CC12CC3CC(C1)CC(n1ncc(NCc4ccco4)c(Cl)c1=O)(C3)C2,1,1,4.4,1.7,7%,-16,0.1,3.6
S=C(NCCc1ccccc1)Nc1ccc(N2CCCCC2)cc1,-18,-12,0.5,3.0,-9%,1,-0.1,-1.7
CCOC(=O)N1CCN(C(=O)c2c(-c3ccccc3Cl)noc2C)CC1,3,-3,3.6,1.7,/,-3,?,1.7
COc1ccc(-c2noc(N3CCC(C(=O)N(C)c4ccccc4C)CC3)n2)cc1,8,32,2.1,-8.4,/,-4,0.4,-2.7
O=C(Cc1cc(=O)[nH][nH]1)N/N=C/C=C/c1ccccc1,?,-5&-18,1.7&4.7,/,26µM*!,-5&-17,1.4&0.1,-1.9&-6.7
CCOc1ccc(CC(=O)Nc2sc(Cc3ccccc3)c(C)c2C(N)=O)cc1OCC,8,10,0.0,/,3%,-4,-1.7,1.8
CCOc1cc(C(=O)Nc2ccc(N3CCOCC3)cc2)cc(Br)c1OC,51,1,-3.0,-0.3,13%,3,-0.3,2.3
CCOc1ccc2oc(C(=O)OCC(=O)NC(=O)NC)c(C)c2c1,5,-3,-1.0,11,/,-4,0.1,-8.4
CCc1ccc(C2CC(c3ccccc3)n3ncnc3N2)cc1 (stereo not given),6,-1,?,1.3,13%,-7,0.6,2.4
O=C(NCCC1CCCCN1S(=O)(=O)c1ccc(Cl)cc1)C(=O)NCc1ccncc1 (stereo not given),1,7,7.7,2.2,7%,/,-0.1,-2.0
CN(CCCNC(=O)c1cc2c(=O)[nH]c3ccccc3c2n1C)Cc1ccccc1,31,-12,3.7,2.5,-7%,-2,?,10
COc1ccc(OC)c(CN(CCCN2CCOCC2)S(=O)(=O)c2ccc(NC(C)=O)cc2)c1,2,-6,1.0,/,1%,-8,0.6,0.1
Cc1cccc2c1cnn2C(=O)CCC(=O)N1CC(C)CC(C)C1 (stereo not given),5,10,?,-13,/,-11,0.5,-3.1
COc1ccccc1NC(=O)c1nn(-c2ccc(Cl)cc2)ccc1=O,1,8,-1.6,/,24%,3,0.0,2.7
O=C1CCc2cc(S(=O)(=O)N3CCCCC3)cc3c2N1CCC3,-3,0,2.1,-4.2,6%,-1,0.8,-2.5
COc1cc(/C=C2/C(=O)c3cccc([N+](=O)[O-])c3C2=O)c(Br)cc1O,/,/,/,/,32µM*,-5,0.4,-2.5
COc1ccc(OCC(=O)Nc2cccc(NC(=O)c3ccco3)c2)cc1,27,-1,?,-1.2,/,-5,-2.1,4.0
CC1(C)OC(=O)C(=CNc2cccc(O)c2)C(=O)O1,3,-2,7.7,5.0,1%,-3,0.4,2.7
CCN(CC)CC(O)CN(c1ccccc1)S(=O)(=O)c1ccc2ccccc2c1 (stereo not given),-15,-19,-0.2,7.8,5%,2,0.7,-1.6
O=C(Nc1ccncc1)c1cccc(S(=O)(=O)N2CCCC2)c1,2,-7,1.5,-10,-10%,-6,-0.6,3.9
Cc1cc(Nc2ccccc2)c2c([N+](=O)[O-])cc(C)c(C)c2n1,2,27,5.6,/,7%,-2,0.9,-2.7
CCN(CC)C(=O)c1sc(NC(=O)c2cc(-c3ccc(C)s3)nc3ccccc23)c(C(=O)OC)c1C,-19,28,-2.0,/,-11%,-6,1.7,-0.6
O=C(Nc1ccccc1)C1=C[C@@H](C2CC2)C[C@@H](OCCCCO)O1,-8,-2,1.2,2.5,-3%,-3,-2.3,-2.8
CCOC(=O)C1(CCOc2ccccc2)CCN(Cc2ccc3nonc3c2)CC1,-4,67*,2.3,14,2%,9,1.3,2.0
CC(C)(C)c1ccc(OCCC(=O)NNC(=O)c2ccccc2)cc1,-10,-5,1.2,-15,0%,-6,-0.1,-1.5
CCCCc1ccc(N/C(N)=N/c2nc(C)cc(C)n2)cc1,-5,75*,?,10,-2%,124*,-1.2,3.4
Cc1ccc(C(c2nnnn2C2CCCCC2)N2CCc3ccccc32)cc1 (stereo not given),?,34,-1.3,/,/,9,-0.1,2.7
Cc1nn(-c2ccccc2)c(N2CCCC2)c1/C=N/NC(=O)c1cccc(S(=O)(=O)Nc2ccc(Cl)cc2)c1,3,20,-0.5,13,4%,2,0.8,/
CCOn1c(=O)c(-c2cccs2)[n+]([O-])c2ccccc21,14,2,21*,/,1%,3,-0.6,-3.4
NNc1nc2cc3c(cc2s1)OCCO3,-2,-6,-2.0,12,/,1,?,0.9
COc1ccc(OC)c(-c2csc(NC(=O)C3=NN(c4ccccc4)C(=O)CC3)n2)c1,-18,-14,-2.9,4.1,-1%,4,0.3,-1.6
O=C(CCS(=O)(=O)c1ccc(Br)cc1)N1CCN(Cc2ccccc2)CC1,2,23,4.3,/,21%,2,-0.4,-5.9
CCCS(=O)(=O)N1CCCC(C(=O)NCCc2ccc(Cl)cc2)C1 (stereo not given),21,10,2.2,/,0%,0,0.2,-1.3
O=C1c2ccccc2C(=O)N1CCCc1nc(-c2ccccn2)no1,3,-1,-4.0,/,26%,0,1.8,1.7
CC(C)Nc1nc(NC(C)C)nc(SCC(N)=O)n1,-2,-5,?,0.3,3%,-6,0.7,-1.0
COC(=O)c1cc(S(=O)(=O)N2CCC(c3cc(OC)ccc3OC)C2)c[nH]1 (stereo not given),5,-29,-0.2,0.9,/,45,-0.2,3.3
COc1ccccc1C1CC(c2ccc(Cl)cc2)Nc2ncnn21 (stereo not given),18,19,-0.6,/,1%,0,0.5,0.4
CCC(C(=O)Nc1c[nH]c(=O)[nH]c1=O)c1ccccc1 (stereo not given),2,0,-1.1,/,-3%,-1,0.0,-2.2
Cc1cccc(N(CC(O)CN2CCOCC2)S(=O)(=O)c2ccccc2)c1 (stereo not given),/,-2,6.3,-1.5,/,-9,-0.1,6.4
COc1cc(/C=C/C(=O)O)ccc1O,9,-3,1.5,-4.5,/,/,-0.6,-9.2
CC(=N)c1c(O)c2ccccc2oc1=O,1,?,3.3,4.1,/,0,-0.5,5.5
O=C1/C(=C/c2cccc(Cl)c2)SC(=S)N1CCC(=O)N1CCCCC1CCO (stereo not given),2,-24,3.6,4.7,/,/,-0.4,-1.5
# Continuation.
SMILES,Calb FLC,T cruzi inh,RanGTP-Impb inh,MLL AF4-AF9 inh,Vif A3G,Beta cell apopt,Bfl-1 A1 inh,LANA-H2A inh
COc1ccc(CNC(=O)CCCC2=NS(=O)(=O)c3ccccc3N2)cc1,14,-14,5.4,-1.6,/,3,?,2.9
CCN(CC)C(=S)Nc1ccc(C(=O)OC)cc1,-2,9,-3.6,-2.2,/,8,2.0,0.9
Cc1cc(N2CCC(C)CC2)nc(NCc2ccccc2)n1,34,52,-2.5,7.0,-1%,101*,-0.1,5.3
CC1CCCN(C(=O)COc2ccc(NC(=O)c3cccs3)cc2)C1 (stereo not given),-8,11,1.1,-15,-10%,2,0.6,-2.6
COC(=O)c1cc(=O)n(Cc2ccc(OC)cc2)c(=NCc2ccc(OC)cc2)s1,-8,0,-1.4,-1.8,-6%,-4,0.9,-0.7
Cc1[nH]c2nc3ccccc3n2c(=O)c1CCC(C)C,-1,-17,3.6,/,/,/,-0.2,-1.7
CC(=O)c1cnc(SCc2ccc(Cl)cc2)nc1C,-13,0,4.6,-2.6,2%,/,1.4,-7.2
CC1CCCN(C(=O)c2cccc(S(=O)(=O)N3CCCc4ccccc43)c2)C1 (stereo not given),-12,26,2.9,-11,2%,-5,0.5,3.3
O=C(NCC1COc2ccccc2O1)c1cccs1 (stereo not given),?,-12,3.4,-0.3,/,-1,0.2,2.7
CCn1c(SCC(=O)Nc2nccs2)nnc1-c1ccc(C)cc1,15,-10,2.9,/,13%,-7,-0.5,-4.0
C/C(=N\NC(=O)c1ccccc1O)C1C(=O)c2ccccc2C1=O,-4,-8,-2.4,/,9%,32,-9.6,-3.7
COc1ccc2cc(C(=O)O)ccc2c1,4,-16,-3.0,/,6%,-4,0.6,-2.6
Cc1ccc(-n2nc(C)c3c(C)onc3c2=O)cc1,-7,/,0.1,0.9,23%,/,-1.4,6.1
OC1(c2cccnc2)CCN(Cc2nnnn2C2CCCCC2)CC1,7,16,1.4,/,0%,/,0.2,2.7
O=C(NCc1ccccn1)c1ccc(COc2ccc(Cl)cc2)o1,6,-4,-0.5,/,1%,6,0.5,8.6
c1ccc2oc(-c3[nH]ncc3CN(Cc3ccncc3)CC3CCCO3)cc2c1 (stereo not given),-12,22,-3.2,1.8,-6%,-1,0.0,0.2
CC(NC(=O)c1ccccc1NC(=O)c1ccco1)c1ccccc1 (stereo not given),-6,-9,?,-4.1,22%,4,0.0,0.9
CCC(C)C(=O)Nc1nnc(SCC(=O)NC(C)(C)C)s1 (stereo not given),-10,-14,5.8,-2.5,-6%,-6,0.0,-0.2
CCCCNc1c(-c2cccc(-c3ccc(OC)cc3)c2)nc2cc(C)ccn12,/,/,/,-0.6,/,56,-0.8,-2.9
COc1ccccc1OCC(=O)Nc1ccc(CSc2ccccc2)cc1C,-7,32,4.1,/,-20%,10,-0.6,2.5
O=C(COC(=O)c1ccccc1[N+](=O)[O-])c1ccc(C2CCCCC2)cc1,-8,22,5.2,/,20%,13,0.1,-4.4
CCC(C)CN1CCC(CO)(Cc2ccccc2Cl)CC1 (stereo not given),-19,6,-3.8,1.3,3%,/,1.1,-0.7
CN(C)C(=O)c1ccc(-n2cccn2)nc1,23,-4,4.1,-1.7,-4%,-1,0.5,-0.8
COc1ccc(CCN(C)C(=O)CSc2nnc(-c3ccco3)o2)cc1OC,7,-6,3.8,0.2,6%,-3,0.6,-2.8
CC(Oc1ccc(C#N)cc1)C(=O)NC1CCCC1 (stereo not given),/,/,/,-2.3,/,-1,1.9,0.2
CC(C)OC(=O)CSc1nnc(-c2ccccn2)n1C,-2,-8,-1.8,/,1%,-2,-0.3,1.2

# Screens as filed in PubChem BioAssay.

# Rows were taken by chance. About 4.3% of those tested had a hit in this group.
